Bioassay records (PubChem BioAssay)
CapD inh: inhibitors of Bacillus anthracis CapD enzyme; purified CapD enzyme, fluorescence intensity read-out; stronger effect = lower value; some hits fall short of the stated cut; z-score (no concentration beside the values); 140,000 tested, 0.23% active;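 active = z-score under -4 in either of two replicates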;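 also: stock transfer was 100 nL into about 40 µL; score is relative to mean and spread of the plate; one replicate is shown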
AID504770: E. coli YBA685 growth inhibition, screen for V. cholerae RctB inhibitors; AID 504770; z-score (concentration not given with the values); E. coli YBA685 rctB-dependent plasmid, OD600 growth, 3 h; stronger effect = lower value; 130,000 tested, 0.27% active;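 active = z-score under -2 on both plates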;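 also: wells of about 30 µL received 100 nL stock; score is relative to mean and SD of the test wells; the first replicate is given; strong numbers were not always called active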
The depositor's hits bear a star; . = no result given.

Values run as follows: CapD inh | AID504770
- Cc1nccc2[nH]c(=O)c(C(=O)NCCc3ccc(Cl)cc3)cc12
    -0.13 | 1.6
- O=C(CCN1C(=O)C2C3C=CC(C3)C2C1=O)Nc1cccc2ccccc12 (stereo not given)
    . | -0.35
- Cc1ccc(Cc2c(C)[nH]c3[nH]n(-c4ccccc4)c(=O)c3c2=O)cc1
    -3.6 | -0.3
- Cc1ccn(CCC(=O)Nc2nccs2)n1
    -0.12 | -0.8
- CSC(N)=NCc1ccco1
    0.005 | 0.45
- Cn1c(=O)c2c(-c3ccccc3Br)n(C(CO)(CO)CO)cc2n(C)c1=O
    1.1 | -0.8
- CS(=O)(=O)N(CC(=O)Nc1cccc(F)c1)c1cccc(F)c1
    0.31 | 0.15
- CC1(C)CC(=O)C2=C(C1)N(c1ccc(Cl)cc1)C(N)=C(C#N)C2c1ccc2c(c1)OCO2 (stereo not given)
    2.1 | .
- COc1cc(C(=O)Nc2nnc(-c3ccc(Br)cc3)s2)cc(OC)c1OC
    23 | .
- CCOc1ccc(NC(=O)CN(C)CC(=O)NC2CCCc3ccccc32)cc1OCC (stereo not given)
    . | -0.2
- CCOc1cc(/C=C2/SC(=S)N(CC(=O)O)C2=O)ccc1OCc1ccccc1
    -0.77 | .
- Clc1ccc(Oc2nnc(Cc3ccccc3)c3ccccc23)c(Cl)c1
    0.24 | .
- O=S(=O)(NCCN1CCOCC1)c1cccc(C(F)(F)F)c1
    . | -0.05
- NNC(=O)c1cc(N)c(=O)[nH]n1
    0.47 | 0
- CC(=O)NCCc1nc2ccccc2n1Cc1ccc(C(C)C)cc1
    1 | -0.1
- CC1(C)CC(=O)C2=C(C1)N(c1cccc(C(F)(F)F)c1)C(N)=C(C#N)C2c1ccsc1 (stereo not given)
    -0.17 | .
- O=C(O)c1c(-c2cccs2)nnc2ccccc12
    -0.57 | 1.3
- O=C(COC(=O)c1ccncc1)NC12CC3CC(CC(C3)C1)C2
    . | -1.4
- CNC[C@H](O)c1cccc(O)c1
    -0.74 | 0.05
- Cc1cc(C(F)(F)F)c(C#N)c(SCC(=O)c2ccc(Br)cc2)n1
    0.86 | .
- O=C(OCC(=O)N1CCc2ccccc2C1)c1cccs1
    -0.57 | -1.2
- CCOc1ccc(OCCSc2nc3ccccc3n2CC(N)=O)cc1
    -0.37 | .
- NNC(=O)c1csc(Cc2c(Cl)cccc2Cl)n1
    10 | 1.2
- O=C(COc1ccc2c(c1)CCC2)N(Cc1nnc(-c2ccc(Cl)cc2)o1)C1CC1
    . | -0.2
- CCOC(=O)C1=NN(C(=O)c2cccc(OC)c2)C(O)(C(C)(C)C)C1 (stereo not given)
    0.26 | -0.4
- CCn1c(-c2nonc2NC(=O)c2ccccc2)nc2ccccc21
    2.8 | -0.35
- S=C(NCc1ccco1)Nc1ccn(C23CC4CC(CC(C4)C2)C3)n1
    0.27 | 0.05
- CN(C)c1ccc(/C=C/C2=Nc3ccccc3SC(C)(C)C2)cc1
    -1.7 | 0.3
- CC(C)OC(=O)NC1(C(F)(F)F)Oc2ccccc2O1
    0.73 | -0.5
- O=C(O)CCCc1ccc2c(c1)OCO2
    -0.58 | -0.7

Reprinted at random: two compounds from above.
Values run as follows: CapD inh | AID504770
- COc1cc(C(=O)Nc2nnc(-c3ccc(Br)cc3)s2)cc(OC)c1OC
    23 | .
- O=C(OCC(=O)N1CCc2ccccc2C1)c1cccs1
    -0.57 | -1.2

(more compounds)
Values run as follows: CapD inh | AID504770
- O=S(=O)(Nc1ccc2c(c1)OCCO2)c1cccs1
    -0.28 | .
- COc1ccc(-c2nsc(NC(=O)CC(C)C)n2)cc1
    -0.17 | -0.55
- O=C1CN(S(=O)(=O)c2cccc(C(=O)O)c2)c2ccccc2N1
    . | -0.3
- Cc1nn(C)c(C)c1NC(=O)c1ccccc1N
    5.7 | 0.05
- O=C(NCc1cn2ccsc2n1)c1cc(Cl)cc(Cl)c1
    -0.46 | -0.25
- COc1ccc(-c2nnc3n2N=C(c2ccc(Cl)cc2Cl)CS3)cc1
    -0.17 | .
- N#Cc1c(C2CCCCC2)nc(Sc2ccc(C(F)(F)F)cc2[N+](=O)[O-])[nH]c1=O
    0.57 | .
- CCC(=O)C(C#N)c1nnc(-c2ccccc2)s1 (stereo not given)
    . | 2.2
- CCOC(=O)C1=C(CC)Nc2ccccc2N/C1=N\S(=O)(=O)c1ccccc1OC
    . | -0.1
- Cc1cc(NC(=O)/C=C/C(=O)O)no1
    0.57 | -0.2
- CCOc1ccc(CN(C)C(=O)C2CCN(S(=O)(=O)c3ccccc3F)CC2)cc1OC
    . | -0.35
- Cc1onc(-c2c(Cl)cccc2Cl)c1-c1noc(CSc2ccccn2)n1
    1.1 | 1.1
- COC(=O)C1=C(C(=O)OC)SC(=C2C(=S)C(C)(C)N(C(=O)CN3C(=O)CCC3=O)c3ccc(C)cc32)S1
    -0.14 | .
- c1ccc2c(c1)nc(NC1CC1)c1nnnn12
    -0.28 | -1
- CCCCSc1nnc(-c2ccccc2N)c(=O)[nH]1
    -1.1 | .
- CC(=O)C1=C(c2ccccc2)S/C(=C2/C(=S)C(C)(C)Nc3cc(C)c(C)cc32)S1
    -0.71 | .
- CCn1cc2nc(SCC(N)=O)n(CCc3ccccc3)c(=O)c2n1
    0.015 | -0.5
- NC(=O)C1CCN(C(=S)NC(=O)C2CC2)CC1
    . | -0.15
- O/N=C1\CCCc2c1[nH]c1ccc(Cl)cc21
    5 | -0.55
- O=C(CSc1ccc(Cl)cc1)c1ccco1
    -0.83 | -0.05
- CC(=O)OC1(c2ccc(C)cc2)CN2CCC1c1ccccc12 (stereo not given)
    0.27 | 1.1
- CN(C)C1(CNC(=O)NCC2(N(C)C)CCCCC2)CCCCC1
    . | 0.15
- CC(C)CNC(=S)N1CCCC1
    1.3 | -0.6
- CCCCc1ccc(N2C(=O)CS/C2=C(/C#N)S(=O)(=O)c2ccccc2)cc1
    0.29 | 0
- CC(C)C(NS(=O)(=O)c1cccs1)C(=O)O (stereo not given)
    . | -0.8
- Cn1nnnc1SCC(=O)N1CCCc2ccccc21
    . | -0.5
- O=C(CN1CCCC1=O)NCCc1ccccc1
    . | -0.6
- O=C1C2=C(Nc3ncnn3C2c2ccccc2)c2ccccc21 (stereo not given)
    . | -0.5
- COc1ccccc1N1C(=O)c2ccc(-c3nc4cc(Cl)ccc4c(=O)o3)cc2C1=O
    -0.075 | 0.75
- N#Cc1c(N)nc2sc(C(=O)c3ccc([N+](=O)[O-])cc3)c(N)c2c1-c1ccccc1
    -0.05 | .

Shown field by field: entries from further up
SMILES: N#Cc1c(C2CCCCC2)nc(Sc2ccc(C(F)(F)F)cc2[N+](=O)[O-])[nH]c1=O
  CapD inh: 0.57	AID504770: .
SMILES: CCC(=O)C(C#N)c1nnc(-c2ccccc2)s1 (stereo not given)
  CapD inh: .	AID504770: 2.2
SMILES: CCOC(=O)C1=C(CC)Nc2ccccc2N/C1=N\S(=O)(=O)c1ccccc1OC
  CapD inh: .	AID504770: -0.1
SMILES: Cc1cc(NC(=O)/C=C/C(=O)O)no1
  CapD inh: 0.57	AID504770: -0.2

(list continues)
Values run as follows: CapD inh | AID504770
- Cc1ccccc1NC(=O)COC(=O)c1ccc(-c2ccccc2)cc1
    0.02 | -0.25
- Cc1ccccc1-c1nnc(SCC(=O)N2CCCc3ccccc32)n1C
    . | -0.4
- CCOC(=O)c1ccc(-n2c(=S)sc3c2nc(SCC(=O)N(CC)CC)n2c4ccccc4nc32)cc1
    -0.52 | .
- O=c1ccn(-c2ccc(F)cc2)nc1-c1ccnc(=S)[nH]1
    7.8 | -0.5
- COc1ccc2cnn(-c3nc4ccccc4s3)c(=O)c2c1OC
    8 | -0.55
- Cc1ccc(C)n1-c1sccc1C(=O)O
    -11* | -0.6
- Cc1oc(-c2cccc(Cl)c2)nc1CN1CCCC(C(=O)N2CCN(c3cccc(Cl)c3)CC2)C1 (stereo not given)
    0.055 | -0.1
- CCOc1ccc(C(C)(C)C)cc1S(=O)(=O)Nc1ccc(Cl)cn1
    -0.16 | 2
- COc1ccc(NC(=O)c2c(NC(=O)C(F)(F)F)sc3c2CCC3)cc1
    -0.08 | .
- Cc1cccc(NC(=O)C(NC(=O)c2ccc(C34CC5CC(CC(C5)C3)C4)cc2)C(C)C)n1 (stereo not given)
    -0.09 | 0
- COC(=O)C(C(=O)OC)c1cc(Br)c2noc3c2c1C(=O)c1ccccc1-3
    -0.055 | -0.05
- COc1cc(C(=O)OCCN2C(=O)C3C4c5ccccc5C(c5ccccc54)C3C2=O)cc(OC)c1OC (stereo not given)
    -0.85 | .
- Cc1ccc(N/C=C2\C(=O)C3(C)CCC2C3(C)C)cc1C (stereo not given)
    4.8 | -0.1
- CC1(C)CC(=O)C2=C(C1)NC1=C(C(=O)c3ccccc31)C2c1cccnc1 (stereo not given)
    -0.055 | -0.95
- COc1ccccc1NNC(=O)C(O)(c1ccccc1)c1ccccc1
    -0.17 | .
- CN1C(=O)N(C)C(=O)C(CC(=O)N2CCCc3ccccc32)(CC(=O)N2CCCc3ccccc32)C1=O
    . | -0.1
- CCn1c2ccc(Cl)cc2c2cc(Cl)ccc21
    0.5 | 1.5
- CC1CC(Nc2ccccc2)c2ccccc2N1C(=O)c1ccc(Cl)cc1Cl (stereo not given)
    -0.58 | .
- COc1cc2c(cc1OC)C(c1ccccc1)N(C(=O)COC(=O)C1CC1)CC2 (stereo not given)
    . | 1.6
- CCC(CC)c1nnc(NC(=O)CN2C(=O)C3CC=CCC3C2=O)s1 (stereo not given)
    . | -0.7
- O=c1[nH]nc(CSc2ccc(Cl)cc2)n1-c1ccccc1
    0.95 | 0.15
- CC(=O)N1CCCc2ccc(NC(=O)c3ccccc3)cc21
    . | -0.3
- CC(=O)NC(CC(=O)N1CCN(c2ccccc2)CC1)c1ccccc1 (stereo not given)
    . | 1.9
- Cc1cc(C)cc(C(=O)NC(=S)Nc2ccc3[nH]c(=O)[nH]c3c2)c1
    0.06 | -0.35
- CCNc1ncnc2scc(-c3ccccc3)c12
    . | -0.25
- NS(=O)(=O)c1ccc(Cl)c(C(=O)Nc2ccc(Cl)cc2)c1
    0.68 | 0.1
- CCCNS(=O)(=O)c1ccccc1
    . | -0.8
- Cc1ccc(S(=O)(=O)NC(=O)Nc2cccnc2)cc1
    5.4 | -0.7
- CCCn1c(NC(=O)C2CCCCC2)nc2ccccc21
    -0.38 | -1.2
- CCC(=O)NC1CCN(C(=S)NC)CC1
    . | -0.8

Next entries follow:
Values run as follows: CapD inh | AID504770
- CC1=CSC2=NC(=O)/C(=C\c3cccn3-c3ccccc3)C(=N)N12
    11 | -0.4
- Cc1ccc(N2C(=O)/C(=C\c3ccc4c(c3)OCO4)N=C2SCC(=O)NCC2CCCO2)cc1 (stereo not given)
    . | -0.55
- COC(=O)c1cn(CC(N)=O)c2nc(C)ccc2c1=O
    -0.17 | -1.1
- CS(=O)(=O)c1ccc2c(c1)CCN2S(=O)(=O)c1ccc2oc(=O)ccc2c1
    0.005 | .
- CCOc1cc(C2c3c(oc4cc(C)cc(C)c4c3=O)C(=O)N2CCCO)ccc1O (stereo not given)
    0.1 | 1.9
- N#Cc1ccc(Oc2ccc(C3(c4ccc(Oc5ccc(C#N)c(C#N)c5)cc4)OC(=O)c4ccccc43)cc2)cc1C#N
    0.22 | .
- Cc1ccc(C(=O)CSc2n[nH]c(-c3ccco3)n2)c(C)c1
    -0.52 | .
- Cc1cc2cc(CNC(=O)c3ccccc3C(F)(F)F)ccc2[nH]1
    0.065 | -0.4
- CC1CC(C)CN(c2ncnc3c2cnn3-c2ccccc2)C1 (stereo not given)
    0.13 | -1
- O=C(CC12CC3CC(CC(C3)C1)C2)NCc1ccco1
    . | -0.15
- CCN(CC(=O)NCc1ccc(F)cc1)c1ccc(S(=O)(=O)N(CC)CC)cn1
    . | 0.7
- O=C(O)CC(NC(=O)c1ccccc1)c1ccccc1 (stereo not given)
    0.055 | -0.4
- CN(C(=O)C(c1ccccc1)c1ccccc1)C1CCS(=O)(=O)C1 (stereo not given)
    0.52 | 0.05
- CC(NC(=O)C1CCCN1C(=O)OCc1ccccc1)c1ccccc1 (stereo not given)
    0.09 | 0.15
- O=C1CSC(=O)N1Cc1ccccc1
    . | -0.9
- COc1ccc(Br)cc1CN1CCC(N2CCN(CCO)CC2)CC1
    -0.97 | -1.1
- Cc1cccc2c(CCNC(=O)OC/C=C/COCc3ccccc3)c[nH]c12
    -0.33 | .
- CC1=CC(=C(C#N)C#N)CC(C)(C)C1
    -0.69 | -1
- C#CCn1c(O)c(N=NC(=O)c2ccccc2-n2cccc2)c2ccccc21
    . | -0.2
- O=C(c1ccccc1)C1CCN(C(=O)Nc2ccccc2)CC1
    0.54 | 0.4
- O=C(N/N=C/c1ccc(O)cc1O)c1cc(Br)ccc1Cl
    -1.1 | .
- COC(=O)c1ccc(OC(=O)CCc2nc3cc(S(=O)(=O)N4CCOCC4)ccc3n2C)cc1
    . | -0.1
- Cc1nc(N2CCC(C)CC2)c2c(C)c(C(=O)N3CCCC3)sc2n1
    1.5 | .
- CCN(CC)C(=O)c1sc2c(c1C)c(=O)n(Cc1ccccc1)c(=O)n2CC(=O)C(C)(C)C
    0.18 | -0.7
- Cc1cccc(C(=O)Sc2cccccc2=O)c1
    6.5 | 0.9
- O=C1CCCC(O)=C1C1(O)C(=O)c2ccccc2C1=O
    -0.11 | -1.4
- CCCCCCCCCCCCCCCCOP(=O)([O-])OCC[N+](C)(C)C
    . | -0.05
- COc1ccc2c(c1)C1(Nc3ccccc3C(=O)N1Cc1ccccc1)C(=O)N2 (stereo not given)
    4.2 | .
- CCc1ccccc1N(C)S(=O)(=O)c1c(C)noc1/C=C/N(C)C
    -3.5 | 0.1
- O=S(=O)(NCc1ccc(N2CCOCC2)cc1)c1ccc(C(F)(F)F)cc1
    -0.53 | 1.6

(more compounds)
Values run as follows: CapD inh | AID504770
- COc1cccc(C=Nc2cnn(C)c2C(N)=O)c1O
    . | -0.7
- Cc1cn(S(=O)(=O)c2ccccc2)cn1
    0.35 | -0.1
- CC1(C)COP(=O)(C(Nc2ccc(Cl)cc2)c2ccc(O)cc2)OC1 (stereo not given)
    -0.14 | .
- CCCCc1c(COC)nc(-c2ccc(Cl)cc2)[nH]c1=O
    -0.62 | -0.15
